Bioassay records: PubChem BioAssay, several laboratories
CSC inhib: cancer stem cell viability inhibitors, primary screen, luminescence; inhibition, % at 7.5 µM; cancer stem cell-like cells viability; 1.1% of 300,000 active;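 active = mean at 75% or more and at least half the replicates too; inconclusive = mean and replicates disagree; tested in HMLE shEcad cells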;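 note: 0% = median of negative and 100% = median of positive control wells; the first replicate is given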
PABP FP inh: PABP poly(A) RNA binding inhibitors, primary screen, biochemical, fluorescence polarization, uHTS. Polyadenylate-binding protein 1 (Homo sapiens), P11940. inhibition, % at 35 µM. 1% of 290,000 active;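 active = 50% or more with normal probe brightness, or confirmed in later tests; inconclusive = above 50% with abnormal brightness, or retests that disagree; inactive = below 50% or failed in later tests; about a fifth of its hits are not listed in these tables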;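 note: calls also rest on retests at 20 µM and on dose response follow-up; controls were probe without protein and protein plus probe with vehicle; some compounds called inactive have numbers as strong as hits; many hits fall short of the cut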
Target sequence (P11940 whole entry, looked up): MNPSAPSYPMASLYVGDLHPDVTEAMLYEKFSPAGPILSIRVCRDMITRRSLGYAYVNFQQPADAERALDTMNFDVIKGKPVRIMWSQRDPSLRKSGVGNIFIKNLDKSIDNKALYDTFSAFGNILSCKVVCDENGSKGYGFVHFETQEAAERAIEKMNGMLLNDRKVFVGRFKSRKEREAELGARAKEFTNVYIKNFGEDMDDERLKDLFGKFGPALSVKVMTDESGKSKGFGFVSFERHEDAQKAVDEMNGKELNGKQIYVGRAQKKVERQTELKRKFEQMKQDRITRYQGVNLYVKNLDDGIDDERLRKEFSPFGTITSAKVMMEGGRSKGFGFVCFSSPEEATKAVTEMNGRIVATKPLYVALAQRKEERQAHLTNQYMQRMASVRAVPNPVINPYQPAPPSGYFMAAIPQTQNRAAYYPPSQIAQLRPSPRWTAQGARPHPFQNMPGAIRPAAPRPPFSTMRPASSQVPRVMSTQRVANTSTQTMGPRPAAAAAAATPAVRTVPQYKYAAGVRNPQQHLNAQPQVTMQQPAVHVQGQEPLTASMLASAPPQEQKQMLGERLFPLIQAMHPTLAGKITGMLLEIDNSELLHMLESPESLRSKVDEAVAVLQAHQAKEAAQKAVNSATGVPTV
MT1-MMP act inh: blockers of MT1-MMP proenzyme processing, primary screen, HT1080 RFP-PRO-GFP cells, GFP/RFP fluorescence; Matrix metalloproteinase-14 (Homo sapiens), P50281; GFP/RFP ratio fluorescence, overnight; percent of plate control window, DMSO zero; GFP/RFP ratio change, % at 20 µM; 0.061% of 360,000 active; AID 651647, 2012;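 active = GFP/RFP ratio change of at least 30% with cell ATP level not reduced by more than half and red fluorescence within 50% of control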; note: strong numbers were not always called active
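Test system: HT1080 RFP-PRO-GFP cells; Benchmarks: DMSO and RFP-L50D-GFP cell wells; Timing: cells overnight before dosing, compound overnight, 37 °C, 5% CO2; Compound: one 20 µM compound dose with 1% DMSO; Read-out: GFP/RFP fluorescence ratio.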
eIF4H FP inh: human eIF4H binding inhibitors, primary screen, translation initiation inhibitor project, biochemical, uHTS, fluorescence polarization | AID 2012, 2009 | Eukaryotic translation initiation factor 4H (Homo sapiens), Q15056 | eIF4H fluorescence polarization binding assay | 0.94% of 290,000 active | inhibition, % at 35 µM;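 active = 50% or more with normal probe brightness, or confirmed in later tests; inconclusive = above 50% with abnormal brightness, or retests that disagree; inactive = below 50% or failed in later tests; about a fifth of its hits are not listed in these tables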;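 note: calls also rest on retests at 20 µM and on dose response follow-up; 0% = protein and probe with vehicle and 100% = probe without protein; strong numbers were not always called active; many hits fall short of the cut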
HIV Env fusion: inhibitors of HIV-1 Env-driven cell-cell fusion, primary screen, HeLa-JRFL effector, CEM21 target cells, luciferase | inhibition, % at 12.3 µM | 1.1% of 360,000 active | AID 651610, 2012;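 active = mean replicate inhibition score of at least 50 and every replicate individually at or above 50; inconclusive = only one of the two criteria met; inactive = mean below 50 and not all replicates reaching 50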;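 note: 0% = plate neutral controls and 100% = maraviroc near 300 nM; one replicate is shown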
Rce1 inhib: yeast Rce1p protease inhibitors, primary screen, biochemical, fluorescence, cell-free homogeneous; yeast membranes, quenched prenylated peptide cleavage fluorescence; 0.27% of 290,000 active; calls only; CAAX prenyl protease 2 (Saccharomyces cerevisiae (strain ATCC 204508 / S288c)), Q03530; AID 2563, 2010;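 active = fall in fluorescence gain of 50% or more versus controls, with final raw signal at or below 3038400; inconclusive = same 50% fall but final raw signal above 3038400; inactive = fall in fluorescence gain under 50%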;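 note: plate controls were neutral control wells for no effect and wells lacking membranes for full effect; tested at 10 µM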
Target sequence (Q03530 whole entry, looked up): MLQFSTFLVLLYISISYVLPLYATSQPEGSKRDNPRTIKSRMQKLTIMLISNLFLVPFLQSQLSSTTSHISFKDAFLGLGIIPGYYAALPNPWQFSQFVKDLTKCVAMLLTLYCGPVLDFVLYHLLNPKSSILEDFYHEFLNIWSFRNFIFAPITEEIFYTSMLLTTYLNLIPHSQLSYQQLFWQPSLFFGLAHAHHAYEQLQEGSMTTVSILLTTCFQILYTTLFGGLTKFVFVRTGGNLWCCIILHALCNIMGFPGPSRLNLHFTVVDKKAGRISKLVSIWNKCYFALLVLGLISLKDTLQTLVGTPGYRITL
Yeast UUG start: modulators of yeast start codon fidelity, primary screen, whole organism, S. cerevisiae, single point, plate reader; 0.13% of 350,000 active; S. cerevisiae UUG-firefly luciferase reporter, luminescence/redox ratio; activity score, % at 18.7 µM; AID 602363, 2012;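 active = replicate mean at a twofold rise or more, about +100% in these data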;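 note: firefly luciferase made from a UUG start codon reports start codon fidelity; reporter light over untreated wells divided by growth signal over untreated wells; some hits fall short of that in this replicate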
eIF4H FP inh retest: second read-out of eIF4H FP inh, no call of its own (marks repeat the call); inhibition, %; compound at 20 µM; confirmation average;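 mean of two retest wells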
PABP FP inh retest: second read-out of PABP FP inh, no call of its own (marks repeat the call); inhibition, %; compound at 20 µM; confirmation repeats;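 mean of two retest wells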
MT1-MMP act inh RFP: recorded beside MT1-MMP act inh, whose call it bears; RFP signal change, %; measured here: RFP expression control read;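 0 = vehicle wells; hits needed this value within 50% of zero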
The depositor's hits bear a star; i = inactive; ? = inconclusive; . = not tested or not shown; & = joins results of further samples. An excerpt; count on the stated rates, not on these rows.

SMILES | CSC inhib | PABP FP inh | MT1-MMP act inh | MT1-MMP act inh RFP | eIF4H FP inh | HIV Env fusion | Rce1 inhib | Yeast UUG start | others
Cc1cc(Oc2ccc(C(C)(C)C)cc2)nc(N2CCOCC2)n1 | 25 | -8 | 10 | -8 | -9 | . | i | 12
COc1ccc(NC2CCCN(C(=O)COc3ccc(C(C)=O)cc3)C2)cc1 (centres undefined) | . | . | -4 | -5 | . | 8 | . | -41
Cc1cc(NC(=O)COC(=O)C2=NN(c3ccccc3)C(=O)CC2)c([N+](=O)[O-])cc1C | -11 | . | 4 | -2 | . | -6 | . | 0
O=C(c1cc(=O)c2ccccc2o1)N1CCN(c2ccccc2)CC1 | -11 | 5 | -1 | 1 | 1 | -1 | i | .
COc1cccc2cc(C(=O)Nc3cc(C)cc(C)c3)/c(=N/NS(=O)(=O)c3ccccc3)oc12 | -9 | . | 0 | 1 | . | -7 | i | -8
CC(NC(=O)c1ccc(S(=O)(=O)N(C)C)cc1)c1ccccc1 (centres undefined) | -8 | 6 | 1 | 3 | 9 | -9 | i | -7
CC(C)(C)c1nn(-c2ccccc2)c2[nH]c(=O)c(C=O)cc12 | 88* | 6 | 3 | -5 | -8 | -26 | i | -27
CN(C)c1ccc2c(c1)Sc1cc(N(C)C)ccc1N2C(=O)c1ccccc1 | 41 | 17 | -6 | -3 | -1 | 0 | i | -1
CC[C@]12c3[nH]c4cc(CCC(=O)N(C)C)ccc4c3CCN1C(=O)[C@@H](CC(=O)NC/C=C(\C)CCC=C(C)C)C[C@@H]2C(=O)N1CCN(C(=O)C2CC2)CC1 | . | . | 5 | -8 | . | -21 | . | 16
O=C(CN1CCN(c2ccccn2)CC1)Nc1cccc(F)c1 | -6 | -8 | -2 | -3 | -9 | 12 | i | -7
CC(=O)c1cccc(NC(=O)COC(=O)[C@@H](NC(=O)OCc2ccccc2)C(C)C)c1 | -17 | 0 | 0 | 0 | 3 | 24 | i | 20
COc1ccccc1C(=O)Nc1ccc2c(c1)nc(CCNC(=O)c1ccccc1)n2C | 65 | 0 | -1 | -12 | -9 | -8 | i | -13
CCOC(=O)CSc1n[nH]c(NC(=O)c2cccc(C(F)(F)F)c2)n1 | 4 | -3 | -1 | 3 | 4 | 15 | i | -2
Cc1ccc(C(=O)CSc2nc3c([nH]2)c(=O)n(C)c(=O)n3C)cc1 | -3 | 5 | 2 | 1 | 17 | 10 | i | .
CCn1c(O)c(/C=N/n2cnnc2)sc1=S | -8 | 10 | 30* | 35* | -2 | -15 | i | -3
COc1ccc(NC(=O)c2c(N)cnn2C)cc1 | -5 | 9 | -1 | -1 | 14 | -10 | i | -20
CC(/C=N\N1CCN(c2ccc(Cl)cc2)CC1)=C\c1ccccc1 | -16 | 2 | 0 | 6 | 7 | . | i | .
CCOC(=O)N1CCN(C(=O)CCn2c(=S)[nH]c3ccccc3c2=O)CC1 | -4 | -1 | -1 | -3 | -10 | 4 | i | -18
O=C(COC(=O)c1ccc([N+](=O)[O-])o1)NC1CCCc2ccccc21 (centres undefined) | 8 | . | 3 | 2 | . | 14 | . | 4
Cc1ccc(CNc2nc(Cl)c(C#N)s2)cc1 | 6 | -3 | -2 | -3 | -3 | -33 | i | .

2 records drawn at random from the list so far:
SMILES | CSC inhib | PABP FP inh | MT1-MMP act inh | MT1-MMP act inh RFP | eIF4H FP inh | HIV Env fusion | Rce1 inhib | Yeast UUG start | others
CC(=O)c1cccc(NC(=O)COC(=O)[C@@H](NC(=O)OCc2ccccc2)C(C)C)c1 | -17 | 0 | 0 | 0 | 3 | 24 | i | 20
Cc1ccc(C(=O)CSc2nc3c([nH]2)c(=O)n(C)c(=O)n3C)cc1 | -3 | 5 | 2 | 1 | 17 | 10 | i | .

Further compounds
SMILES | CSC inhib | PABP FP inh | MT1-MMP act inh | MT1-MMP act inh RFP | eIF4H FP inh | HIV Env fusion | Rce1 inhib | Yeast UUG start | others
Cc1cccc(-n2nc3c([n+]2[O-])CCc2nonc2-3)c1C | -5 | -1 | 3 | 3 | -6 | -8 | i | .
Cc1c(C(=O)NCc2ccc(F)cc2)sc(=O)n1Cc1ccccc1F | . | . | 5 | 0 | . | -8 | . | 3
CCCCC(=O)Nc1ccc2c(c1)nc1n2CCSC1 | -6 | 3 | -1 | 5 | 5 | -85 | i | -23
CN(C)C(=O)c1c([N+](=O)[O-])ncn1C | -5 | 68 | 4 | 3 | -2 | 3 | i | 7 | eIF4H FP inh retest=10;PABP FP inh retest=29
O=C(Cn1cnc2c(cnn2-c2ccc(F)cc2)c1=O)N1CCCc2ccccc21 | -8 | -5 | -2 | -15 | 1 | ? | i | 11
COc1ccc(CN(CC(=O)NC2CCCC2)C(=O)c2ccc(-c3ccccc3)[nH]2)cc1 | -5 | 4 | -6 | -6 | -16 | 8 | i | .
CCOc1c(N2CCOCC2)c(=O)c1=O | -8 | 11 | 4 | 2 | 4 | 2 | i | -1
O=C(NC(c1ccc(Cl)cc1)c1ccsc1)C1CCN(Cc2cccc(C(F)(F)F)c2)CC1 (centres undefined) | . | . | -6 | -6 | . | 17 | . | -14
CCn1c(=O)c([N+](=O)[O-])c(N2CCSCC2)c2ccccc21 | 11 | 1 | 2 | -22 | -2 | 6 | i | -8
Cc1ccc(-c2csc3nnc(SCC(=O)Nc4cccc(C)n4)n23)cc1 | -8 | 12 | 0 | -2 | -2 | 107* | i | -21
CCOC(=O)N1CCN(C(=O)NC2CCCCC2)CC1 | -4 | 0 | 16 | 8 | 10 | -11 | i | 0
CCN1CCN(C(=O)C(N)Cc2ccccc2)CC1 (centres undefined) | -8 | ? | 2 | 5 | 2 | 5 | i | .
COc1ccc(-c2nn3c(-c4cccc(C)c4)nnc3s2)cc1OC | 44 | . | -19 | 0 | . | -11 | i | .
CCS(=O)(=O)N1Cc2ccccc2CC1C(=O)OCC(=O)N(C(C)C)C(C)C (centres undefined) | -3 | -8 | -4 | 4 | 0 | -2 | i | 5
COc1ccc(OC)c(C(=O)NC(CC(N)=O)c2ccc(NCCN3CCCCC3)c([N+](=O)[O-])c2)c1 (centres undefined) | -6 | 3 | 0 | -1 | -4 | -10 | i | -3
O=C(NCCO)c1ccccc1O | . | 8 | -3 | 1 | -4 | -29 | i | -18
Cc1nc(N2CCCCC2)c2c(-c3cccs3)csc2n1 | 48 | -3 | -5 | -6 | 3 | 2 | i | .
Fc1cccc(Cc2c(-c3ccccc3)nc3ccc(Cl)cn23)c1 | . | . | -5 | -4 | . | -9 | . | -16
CCc1cccc(CC)c1NC(=O)COn1nnc2ccc(C(F)(F)F)cc21 | -3 | -32 | -1 | 0 | -3 | 23 | i | .
O=S(=O)(NCc1cccnc1)c1ccc2ccccc2c1 | . | -6 | 1 | -6 | -13 | 24 | i | -20
Cc1cccc(N(CC(=O)NC2CCCCC2)C(=O)CCCC(=O)Nc2ccccn2)c1C | -7 | 4 | 0 | 3 | 2 | 6 | . | .
CN(C)C(C(=O)Nc1cc(Cl)cc(Cl)c1)c1ccccc1 (centres undefined) | -15 | -7 | -1 | -1 | 1 | 30 | . | -6
Cc1ccc2c(c1)C(=O)C(=O)N2CCCOc1ccccc1C | 32 | 0 | -2 | 3 | -8 | 2 | i | .
O=C(NCc1cc(C(F)(F)F)cc(C(F)(F)F)c1)C1CC(c2ccc(C(F)(F)F)cc2)=NO1 (centres undefined) | 4 | . | 3 | -1 | . | -17 | i | -8
Cc1ccc(C(=O)NCc2cccs2)cc1S(=O)(=O)N1CCCCC1 | -26 | 2 | 1 | -2 | -2 | . | i | -18
Nc1cc(C(F)(F)F)ccc1-n1cccc1 | -3 | -10 | -17 | 1 | 12 | 2 | i | .
CCOC(=O)c1sc(NC(=O)CSc2nc(O)c(Cc3ccccc3)c(=O)[nH]2)nc1C | -4 | 4 | 0 | 1 | -5 | -3 | . | .
Cc1nnc(SCC(=O)OC2CC(C)CCC2C(C)C)[nH]c1=O (centres undefined) | -7 | -6 | -4 | 0 | -8 | -17 | i | .
Cc1cc(C(=O)CSc2nncs2)c(C)n1-c1ccc2c(c1)OCO2 | -7 | -4 | 5 | -15 | -2 | . | i | -25
COc1ccc(-c2nc3cc(C)ccn3c2NC2CCCCC2)cc1SC1CCCCC1 | . | . | -94&-21 | -27&-11 | . | 26&19 | . | -8
Cc1ccc(-c2c3c(=O)n(C)c(=O)n(C)c3cn2CCCN2CCOCC2)cc1 | -15 | -4 | -8 | -4 | 5 | . | i | -13
N#C/C(=C/c1ccc(F)cc1)S(=O)(=O)c1ccccc1 | -1 | 0 | -2 | 3 | -8 | 11 | i | -7
COc1cc2ccc(=O)oc2cc1O | -14 | . | 7 | 4 | . | . | . | -11
Cc1nnc(SCC(=O)NC(C)(C)C)n1NCc1ccc(N(C)C)cc1 | -17 | 3 | -2 | 1 | -1 | 0 | i | -23
CCC1SC(C)C/C(=N/NC(N)=O)C1C (centres undefined) | -4 | -8 | -1 | 1 | -3 | 11 | i | -16
O=C(O)c1c2c(nc3ccccc13)/C(=C/c1ccc(OC(F)F)cc1)CCC2 | -9 | 17 | 1 | 3 | 9 | -19 | i | -8
CN(Cc1ccccc1)C(=O)CN(Cc1ccccc1)S(C)(=O)=O | -9 | -7 | 2 | 0 | -1 | -57 | i | -4
O=C(COC(=O)/C=C/c1ccccc1)Nc1nnc(-c2ccccc2)o1 | -5 | . | 4 | 4 | . | -9 | i | -20
FC(F)(F)c1nc(SCc2ccccc2)n[nH]1 | -7 | . | 2 | 1 | . | -16 | i | -23
COc1ccc(NC(=O)c2cccc3c(-c4cccnc4)coc23)cc1 | . | . | 3 | -6 | . | 16 | . | -15
CN(CCNC(=O)C1CCCN(c2ncnc3c2nc2n3CCCCC2)C1)Cc1ccccc1 (centres undefined) | 7 | -4 | -4 | 0 | -4 | 8 | i | 4
C/C(Cn1nnc([N+](=O)[O-])n1)=N\NC(=O)c1ccccc1 | -4 | -7 | -10 | -5 | 2 | . | i | -11

In the list so far, 6 have two or more sulfur atoms:
SMILES | CSC inhib | PABP FP inh | MT1-MMP act inh | MT1-MMP act inh RFP | eIF4H FP inh | HIV Env fusion | Rce1 inhib | Yeast UUG start | others
CCn1c(O)c(/C=N/n2cnnc2)sc1=S | -8 | 10 | 30* | 35* | -2 | -15 | i | -3
Cc1ccc(-c2csc3nnc(SCC(=O)Nc4cccc(C)n4)n23)cc1 | -8 | 12 | 0 | -2 | -2 | 107* | i | -21
Cc1nc(N2CCCCC2)c2c(-c3cccs3)csc2n1 | 48 | -3 | -5 | -6 | 3 | 2 | i | .
Cc1ccc(C(=O)NCc2cccs2)cc1S(=O)(=O)N1CCCCC1 | -26 | 2 | 1 | -2 | -2 | . | i | -18
CCOC(=O)c1sc(NC(=O)CSc2nc(O)c(Cc3ccccc3)c(=O)[nH]2)nc1C | -4 | 4 | 0 | 1 | -5 | -3 | . | .
Cc1cc(C(=O)CSc2nncs2)c(C)n1-c1ccc2c(c1)OCO2 | -7 | -4 | 5 | -15 | -2 | . | i | -25
